# High-throughput results from PubChem BioAssay.
# Menin-MLL FL inh: qHTS Assay for Inhibitors Targeting the Menin-MLL Interaction in MLL Related Leukemias: Competition With Fluorescein Labeled MLL-derived Peptide. Fluorescence polarization, fluorescein-MLL peptide displacement from menin. FP activity change, % at 61.4 µM. 290,000 tested, under 10 active. AID 1766, 2009; inconclusive = falling polarisation curve, or a change in total fluorescence; inactive = total fluorescence flat and polarisation flat or rising; no compound was filed as active; the % refers to the polarisation; negative = inhibition;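 also: % of control where 0% means no effect; inhibitors lower the polarisation; unlabelled MLL peptide was the positive control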
# gsp antag: qHTS for Antagonists of gsp, the Etiologic Mutation Responsible for Fibrous Dysplasia/McCune-Albright Syndrome: qHTS | gsp-mutant cells, cAMP HTRF, 30 min; control for the full effect not named in the record | Potency, µM (highest dose often 76.9 µM), for inactives: top-dose activity change, negative = inhibition, hits mostly inhibitors | 0.4% of 340,000 active; active = falling curve of any shape with a large fitted effect; inconclusive = falling curve, mostly with a smaller effect; inactive = flat or rising curve; cell line not stated here;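 also: intracellular cAMP measured with PDE inhibitor Ro 20-1724 present during compound exposure; potency is read from the fitted curve at half-maximal effect; % is scaled to controls: 0 for no effect and ±100 for the full control effect; nearly all actives have a fitted effect of over 65% in size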
#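 Cells, 2000/well, grown 16–24 h in DMEM 10% FBS with 0.5 mg/ml G418, then compounds plus […] (300 uM addition stock), 30 min at 37C. cAMP read by HTRF (cAMP-d2 and anti-cAMP antibody-K in lysis buffer) after 30 min RT.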
# gsp ag: qHTS for Agonist of gsp, the Etiologic Mutation Responsible for Fibrous Dysplasia/McCune-Albright Syndrome: qHTS. 0.13% of 340,000 active. gsp mutant cells, cAMP HTRF, 30 min; control for the full effect not named in the record. Potency, µM (series often up to 76.9 µM), for the others: at the highest dose activation (cAMP increase), most hits filed as activators; active = well fitted activation curve with a large enough effect; inconclusive = small, poorly fitted or top-dose-only effect, or another doubt; inactive = no such curve, though single readings can be large or run the other way; cell line not stated here;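 also: phosphodiesterase inhibitor Ro 20-1724 added with compounds to block cAMP breakdown; potency is read from the fitted curve at half-maximal effect; nearly all actives have a fitted effect of over 60% in size; about a fifth of the inactives were tested at one dose only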
#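 Cells stably selected in G418 were plated at 2000/well, grown 16-24 hr, then given compounds in DMSO with the PDE inhibitor […] (300 uM solution added) for 30 min at 37C; cAMP was read by HTRF.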
# D2 PAM: Beta-Arrestin HTS for Positive Allosteric Modulators of the Human D2 Dopamine Receptor: Potentiators; D(2) dopamine receptor (Homo sapiens), P14416; DiscoveRx D2 beta-arrestin cells, luminescence, 90 min; 100% = 57 uM dopamine signal; potentiation, % (concentration not given with the values); 0.23% of 360,000 active; AID 624464, 2012; active = potentiation of 50% or more; inconclusive = 30% to 50%; inactive = 30% or less;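 also: compound concentration not given in the record; tested on top of an EC20 dose of dopamine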
#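 PathHunter D2 cells, attached overnight at 37 deg C, received compound in DMSO plus dopamine at EC20 (50 nM final) for 90 min at 37 deg C. Beta-arrestin recruitment was read as luminescence after 1 h with detection reagent at ambient temperature.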
# Sfp inh: qHTS Assay for Inhibitors of Bacillus subtilis Sfp phosphopantetheinyl transferase (PPTase); 4'-phosphopantetheinyl transferase ffp (Bacillus subtilis), Q9F4F7; Biochemical Sfp PPTase activity, qHTS; Potency, µM, without a hit: max response, negative = inhibition, most hits filed as inhibitors; 3.5% of 310,000 active; AID 1490, 2009; active = well fitted inhibition curve with a large enough effect; inconclusive = small, poorly fitted or top-dose-only effect, or another doubt; inactive = no such curve, though single readings can be large or run the other way;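 also: the enzyme is Sfp with the accession as filed and its product quenches rhodamine fluorescence; potency is read from the fitted curve at half-maximal effect; 0% = enzyme reaction without inhibitor and -100% = no enzyme wells; top concentration of the series not given in the record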
#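 With Hepes-Na pH 7.6 buffer containing 10 mM MgCl2, Sfp (15 nM) modified BHQ-2-YbbR (12.5 uM) using rhodamine-CoA (5 uM). Two reads 30 minutes apart at 525/598 nm yielded each well's rate.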
# TRPV1 potentiator: HTS Assay for Compounds that Act as Potentiators of the Vanilloid Receptor 1; TRPV1-expressing cells, Fluo-8 calcium influx, capsaicin EC20 potentiation; host cell line not named in the record; control for the full effect not named in the record; 0.02% of 320,000 active; potentiation, % at 8.33 µM; active means potentiation above 80%; inconclusive means 30% to 80%; inactive means below 30%; also: 0% is about no effect
# Target sequence (Q8NER1 whole entry, looked up): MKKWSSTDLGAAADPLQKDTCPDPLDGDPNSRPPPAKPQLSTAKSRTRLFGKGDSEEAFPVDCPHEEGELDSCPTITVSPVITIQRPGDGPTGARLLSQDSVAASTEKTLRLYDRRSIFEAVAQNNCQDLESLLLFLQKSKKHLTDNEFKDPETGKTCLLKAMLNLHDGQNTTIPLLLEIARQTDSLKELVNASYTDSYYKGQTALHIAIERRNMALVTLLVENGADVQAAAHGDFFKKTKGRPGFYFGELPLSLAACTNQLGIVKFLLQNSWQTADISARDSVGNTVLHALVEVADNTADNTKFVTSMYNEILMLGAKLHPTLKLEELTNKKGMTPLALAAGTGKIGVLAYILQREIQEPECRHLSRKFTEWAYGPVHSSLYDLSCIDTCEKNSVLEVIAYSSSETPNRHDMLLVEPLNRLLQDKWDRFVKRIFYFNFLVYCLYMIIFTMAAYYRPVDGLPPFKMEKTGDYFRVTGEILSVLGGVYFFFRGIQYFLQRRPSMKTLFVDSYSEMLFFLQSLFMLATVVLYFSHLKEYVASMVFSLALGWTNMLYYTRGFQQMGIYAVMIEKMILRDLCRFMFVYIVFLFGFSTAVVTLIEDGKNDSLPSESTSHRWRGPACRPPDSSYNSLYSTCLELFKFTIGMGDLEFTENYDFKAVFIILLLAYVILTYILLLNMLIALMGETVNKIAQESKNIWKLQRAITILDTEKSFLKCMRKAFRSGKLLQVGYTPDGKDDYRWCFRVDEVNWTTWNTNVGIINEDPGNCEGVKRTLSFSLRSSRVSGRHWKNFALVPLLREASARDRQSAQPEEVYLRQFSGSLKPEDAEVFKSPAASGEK
#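 Fluo-8 calcium influx in TRPV1-expressing cells, kinetic read (ex 480/em 520 nm). Compound added and read 3 min for agonist activity, followed by capsaicin at EC20 final and 2 min further read for enhancement.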
# ClpP mod: qHTS Assay for Activators of ClpP; 1.9% of 340,000 active; Potency, µM (doses to about 57.5 µM), for the others: at the highest dose activity change, negative = active; purified B. subtilis ClpP, FRET peptide cleavage, 20 min; ATP-dependent Clp protease proteolytic subunit (Bacillus subtilis (strain 168)), P80244; AID 651965, 2013; active = well fitted falling curve with a large enough effect; inconclusive = small, poorly fitted or top-dose-only effect; inactive = no such curve, though single readings can be large or run the other way; also: potency is read from the fitted curve at half-maximal effect; the source files actives as falling curves though it sought activators and does not explain the sign; nearly all actives have a fitted effect of over 65% in size; many hits overshoot -100%
# Target sequence (P80244 whole entry, looked up): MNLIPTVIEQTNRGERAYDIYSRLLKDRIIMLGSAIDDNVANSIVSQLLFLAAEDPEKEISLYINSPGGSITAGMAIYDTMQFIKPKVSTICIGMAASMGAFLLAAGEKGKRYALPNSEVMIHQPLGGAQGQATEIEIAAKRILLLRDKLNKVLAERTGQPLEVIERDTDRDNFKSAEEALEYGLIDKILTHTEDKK
#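 Buffer: 100 mM Tris/HCl pH8, 100 mM KCl, 0.05% low protease BSA, 2.5% glycerol, 0.01% Tween-20. ClpP 10 microg/mL final; 20 min RT; delta FRET normalized to ADEP and DMSO controls.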
# An asterisk follows results filed as active; ? = inconclusive; · = no result given; [ ] = dose if it differs, or a comment.
no.	mol	Menin-MLL FL inh	gsp antag	gsp ag	D2 PAM	Sfp inh	TRPV1 potentiator	ClpP mod
1	COc1cccc(N(CC(=O)NC(C)(C)C)C(=O)C2CSC(=O)C2)c1 (stereo not given)	6.0	5%	?	-11	16%	-4	-0.1%
2	CCCCn1c(N)c(N(CC)C(=O)c2ccco2)c(=O)[nH]c1=O	·	2%	-5%	2	·	8	-1.5%
3	Cc1cc(C(F)(F)F)cc(NNC(=O)NC(=O)c2c(F)cccc2Cl)n1	13	7%	-46%[inhibitor]	-3	3%	0	·
4	CCCC(c1nnnn1Cc1ccc2c(c1)OCO2)N1CCC(C(N)=O)CC1 (stereo not given)	-1.3	-9%	-13%[15.4 µM]	3	6%	1	·
5	COc1ccccc1C(=O)NC(=S)Nc1ccc(N2CCCC2)cc1	-2.4	0%	?	3	11%	3	-22%
6	CCN(CCNC(=O)c1cccc(N2CCCC2=O)c1)c1ccccc1	0.4	-10%	-31%[inhibitor]	-20	21%	20	0.4%
7	COc1ccc(C)cc1NC(=O)CN1CCN(c2ccc(F)cc2)CC1	3.2	-17%	-3%	-7	-13%	-1	6.2%
8	CC1=C(C(=O)OCc2ccccc2)C(c2ccco2)C2=C(CC(C)(C)CC2=O)N1 (stereo not given)	4.1	?	-3%	-11	-16%	15	?
9	COc1c(Br)cc(Br)cc1/C=N/NC(=O)c1cccnc1	-0.3	2%	2%	-1	24%	3	-2.2%
10	COC(=O)Cc1[nH]nc2c1C(c1cccc(OC)c1OC)C(C#N)=C(N)O2 (stereo not given)	-1.6	3%	1%	-1	?	5	28µM*
11	COC(=O)CSc1nc(NC(C)(C)C)nc(N(C)C)n1	-0.3	10%	1%[15.4 µM]	-1	-7%	-6	·
12	COc1ccc(OCC(=O)N2CCC(Cc3ccccc3)CC2)cc1	-0.3	11%	-4%[15.4 µM]	-9	5%	20	-0.3%
13	CCCCn1c2c(c(=O)n(C)c1=O)C(CC(=O)OCC(=O)Nc1cccc(C(F)(F)F)c1)C(=O)N2 (stereo not given)	4.0	-6%	3%	-3	14%	-3	-0.9%
14	Cc1ccccc1NC(=O)C1c2cccc[n+]2CC(=O)N1c1c(C)cccc1C (stereo not given)	?	-6%	-5%	20	50µM*	3	-5.0%
15	O=C(NC1CCN(Cc2ccccc2)CC1)C12CC3CC(CC(C3)C1)C2	0.6	7%	-22%	-16	4%	-13	-0.8%
16	Cc1ccnc(NC(=O)c2cccc(S(=O)(=O)N3CCCC3)c2)c1	·	0%	-5%	-22	-5%	-21	-2.6%
17	COc1ccc(C(=O)c2ccc(OC)c(Br)c2)cc1Br	12	9%	42%	4	-22%	1	1.2%
18	COc1ccccc1C(=O)Nc1nnc(-c2ccco2)s1	2.7	-7%	-17%	10	3%	2	-25%
19	CC(C)C1CC(CCNCc2ccc(N(C)C)cc2)(c2ccccc2)CCO1 (stereo not given)	0.8	-19%	7%	-33	4%	-10	-4.8%
20	CCC(=O)N(CC(=O)Nc1sc(C)c(C)c1C(N)=O)C1CCCCC1	2.5	-12%	7%	-8	3%	6	-0.5%
21	COC(=O)C1CN(C(=O)COc2ccc(C)cc2)c2ccccc2O1 (stereo not given)	-1.4	-24%	26%[15.4 µM]	-6	-3%	-23	-0.6%
22	Cc1cc2c(=O)[nH]c(N)nc2[nH]1	·	·	-15%	-6	·	·	-2.2%
23	c1ccc2c(N3CCCCC3)nc(N3CCCC3)nc2c1	-0.1	-4%	-4%	-31	-4%	12	?
24	O=C(CC(=O)c1cc(Cl)ccc1O)c1ccccc1	2.6	?	26%	10	-62%	-4	11%
25	CCN1CC(CN(C)Cc2cn(-c3ccc(C)cc3)nc2-c2cccc(C)c2)CC1=O (stereo not given)	-0.6	-5%	-32%[inhibitor]	-18	-2%	9	·
26	Cc1ccc(Cn2c(NCCc3ccccc3)nc3c2c(=O)n(C)c(=O)n3C)cc1	-0.2	-2%	6%	-8	-15%	-6	-1.1%
27	CCOc1ccc(NC(=O)/C(C#N)=C/c2ccc(N3CCCC3)c(C)c2)cc1	?	-11%	-16%	6	-8%	-3	-3.7%
28	Cc1ccc(C)c(NS(=O)(=O)c2c(C)ccc3nsnc23)c1	-0.9	2%	?	-7	-9%	?	-1.6%
29	CC(Nc1cc(=O)n(C)c(=O)[nH]1)c1ccccc1 (stereo not given)	0.9	-2%	0%	-19	-3%	-6	-1.1%
30	N#Cc1c(SC(C(=O)O)c2ccccc2)nc2c(c1-c1cccs1)CCCC2 (stereo not given)	-0.4	7%	8%[15.4 µM]	11	-25%	9	·
31	CC(C)(C)N=C1SCC(C)(/C=N/O)S1 (stereo not given)	6.7	0%	-20%	2	-8%	0	0.9%
32	CCOc1ccc(-c2nc(C#N)c(NC3CC3)o2)cc1	2.2	-8%	44%	-7	-11%	-10	7.1µM*
33	CSc1sc(C)cc1/C=N/O	-0.6	12%	4%	-4	4%	0	-1.9%
34	Cc1cc(=O)[nH]c(NCCO)n1	-0.4	3%	10%	-1	22%	-11	·
35	O=C(N/N=C/c1sc(=O)n(Cc2ccc(Br)cc2)c1Cl)c1ccco1	·	0%	7%	-4	1%	12	·
36	O=C(NNc1ccccc1Br)C(O)(c1cccc(C(F)(F)F)c1)c1cccc(C(F)(F)F)c1	1.7	-33%	?	26	47%[activator]	-4	1.2%
37	CC(C)(C)NC(=O)CN(Cc1cccs1)C(=O)c1csnn1	1.2	11%	-24%	-9	2%	-2	1.6%
38	COc1ccc(-n2ncc3c(SCC(=O)NNC(C)=O)ncnc32)cc1	-2.6	-7%	-12%[15.4 µM]	-1	4%	2	-5.8%
39	O=C(COc1ccccc1)NC1CCSc2ccccc21 (stereo not given)	·	-4%	-11%[15.4 µM]	-4	·	21	·
40	Cc1ccc2[nH]c(C(=O)N3CCC(C(N)=O)CC3)cc2c1	-1.5	4%	3%[15.4 µM]	-2	14%	29	-0.7%
41	COc1ccc(CNC(=O)C(C)Sc2ccc(S(=O)(=O)N3CCOCC3)cn2)cc1 (stereo not given)	·	14%	-7%[15.4 µM]	-16	·	-21	0.0%
42	CCCNc1ccc(C(=O)OCC)cc1[N+](=O)[O-]	-0.9	25%	-5%[15.4 µM]	-19	-25%	-7	-13%
43	O=C(CSc1ncn[nH]1)N/N=C/c1ccc(C(F)(F)F)cc1	·	-2%	?	-11	7%	-9	0.4%
44	O=C(CSc1nnc(C2CC2)n1C1CC1)c1ccccc1F	·	2%	-2%	5	·	-3	1.3%
45	Cc1nnc(N(Cc2ccco2)C(=O)c2cccc(C#N)c2)s1	9.2	8%	4%	-7	11%	-42	0.5%
46	C=CCOC(=O)CCCCCCCC	·	0%	·	-4	·	7	-0.1%
47	CC(C)NC(=O)Cn1c(SCC(=O)N2CCCc3ccccc32)nc2ccccc21	1.3	10%	-16%	-21	7%	-12	-2.2%
48	COc1ccc(-n2nc(C(=O)NCC(=O)N3CCCC(C)C3)c3ccccc3c2=O)cc1 (stereo not given)	-1.9	-8%	-2%[15.4 µM]	2	-4%	-7	·
49	Cc1cc2occ(CC(=O)N(C)CC(=O)Nc3ccc(F)cc3)c2cc1C	·	-3%	5%	-5	·	-9	-2.5%
50	COc1ccc(/C=N/Nc2ncnc(Cl)c2N)cc1OC	5.2	-14%	-3%	-15	32µM*	-2	?

# Carrying on:
no.	mol	Menin-MLL FL inh	gsp antag	gsp ag	D2 PAM	Sfp inh	TRPV1 potentiator	ClpP mod
51	CCc1ccccc1NC(=O)CC1CS(=O)(=O)CC1CC(=O)Nc1ccccc1CC (stereo not given)	-1.1	10%	9%	-11	24%	1	1.4%
52	Cc1cccc(CCN2C(Nc3ccccc3)=NC[C@@H]2C)c1	·	-7%	·	-15	·	?	-3.3%
53	COc1ccc(Br)cc1C(=O)Nc1ccc(O)cc1	-2.9	-11%	4%	1	-7%	10	-1.0%
54	CCOc1ccc(N(Cc2ccccc2F)C2=NC3CS(=O)(=O)CC3S2)cc1 (stereo not given)	6.8	-17%	-10%	-5	-22%	6	0.1%
55	COC(=O)c1ccc(OCc2nc(N)nc(N3CCOCC3)n2)cc1	3.0	-1%	10%	0	10%	3	-2.0%
56	Cc1cc(C)c(S(C)(=O)=O)c(Oc2ccc(C(C)(C)C)cc2)n1	4.2	-11%	-2%	-41	-3%	-8	-1.8%
57	COc1ccc(CNC(=O)C2CC(=O)N(C3CCCCC3)C2)cc1 (stereo not given)	0.3	5%	7%	-5	12%	12	1.0%
58	CC[C@]12c3[nH]c4ccc(Cl)cc4c3CCN1C(=O)[C@@H](CC(=O)NCC13CC4CC(CC(C4)C1)C3)C[C@@H]2C(=O)N1CCN(C(=O)C2CC2)CC1	·	-13%	·	-9	·	·	-1.1%
59	Nc1nc(Sc2c([N+](=O)[O-])cc(C(F)(F)F)cc2[N+](=O)[O-])n[nH]1	-1.2	-24%	3%[15.4 µM]	1	?	·	1.0%
60	CCc1cccc2c(=O)c(C(=O)N3CCCCCC3)c[nH]c12	1.2	30%	-32%[inhibitor]	-2	11%	-28	-3.4%
61	COc1ccc(C(CNC(=O)CNC(=O)c2cc(OC)c(OC)c(OC)c2)N2CCOCC2)cc1 (stereo not given)	·	7%	3%	?	·	6	-8.6%
62	Cc1cc(C)cc(NC(=S)Nc2cccc3ccccc23)c1	·	-2%	0%	-20	4%	-3	4.2%
63	Cc1ccccc1NS(=O)(=O)c1ccc(C(=O)NCC2CCCO2)cc1 (stereo not given)	·	8%	-1%	-8	·	-1	-1.6%

# Hits appear at their usual frequency. Share with any hit: about 5.1%.
